Source: PubChem BioAssay
KCNQ2 enhance: potentiators of rat KCNQ2 potassium channel; Potassium voltage-gated channel subfamily KQT member 2 (Rattus norvegicus), O88943; CHO-K1 KCNQ2, FluxOR thallium flux fluorescence; stronger effect = higher value; B-score at 10 µM; 310,000 tested, 0.54% active; AID 2239, 2010;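 active = fluorescence ratio B-score at least 3 SD of library B-scores, with initial fluorescence B-score within 3 SD, cut at about 5.3 in these data; same plate scores as AID 2156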;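 also: B-score of peak minus minimum over baseline fluorescence ratio after K+ and Tl+ stimulus; positive B-score means potentiation of KCNQ2 with more thallium influx and brighter signal; only the inactives scoring about 0 or higher are listed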
Target sequence (O88943 whole entry, looked up): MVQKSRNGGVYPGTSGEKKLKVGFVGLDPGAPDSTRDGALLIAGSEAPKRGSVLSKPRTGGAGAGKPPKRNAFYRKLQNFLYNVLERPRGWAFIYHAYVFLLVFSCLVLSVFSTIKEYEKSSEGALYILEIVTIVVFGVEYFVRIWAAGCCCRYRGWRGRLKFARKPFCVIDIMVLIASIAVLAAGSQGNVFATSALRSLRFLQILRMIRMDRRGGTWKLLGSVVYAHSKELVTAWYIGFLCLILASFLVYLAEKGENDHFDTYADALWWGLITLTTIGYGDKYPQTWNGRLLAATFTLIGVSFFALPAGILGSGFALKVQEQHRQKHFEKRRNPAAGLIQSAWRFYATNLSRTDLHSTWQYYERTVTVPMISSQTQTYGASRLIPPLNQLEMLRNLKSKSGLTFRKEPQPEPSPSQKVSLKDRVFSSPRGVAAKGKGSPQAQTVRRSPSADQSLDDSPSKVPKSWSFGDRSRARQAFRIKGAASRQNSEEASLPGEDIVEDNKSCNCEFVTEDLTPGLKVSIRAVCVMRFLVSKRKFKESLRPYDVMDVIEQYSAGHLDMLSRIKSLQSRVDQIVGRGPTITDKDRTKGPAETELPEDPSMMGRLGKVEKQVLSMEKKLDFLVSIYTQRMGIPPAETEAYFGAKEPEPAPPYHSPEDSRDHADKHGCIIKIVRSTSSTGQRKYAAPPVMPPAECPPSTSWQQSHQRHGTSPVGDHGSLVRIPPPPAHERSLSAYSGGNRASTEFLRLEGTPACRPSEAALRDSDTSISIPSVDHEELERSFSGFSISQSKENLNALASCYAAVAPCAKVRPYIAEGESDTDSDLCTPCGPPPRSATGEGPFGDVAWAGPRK
KCNQ2 enhance baseline: recorded beside KCNQ2 enhance, whose call it bears; B-score; compound at 10 µM; measured here: initial fluorescence intensity artifact check;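 brightness before thallium and not channel activity; 0 = typical well and far values either way flag optical interference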
* hit, by the source's call; / = no result given.

Below each compound: KCNQ2 enhance | KCNQ2 enhance baseline
> O=C(OCc1nc2ccccc2c(=O)[nH]1)c1cccs1
  0.83 | -0.31
> Cc1ccc(S(=O)(=O)n2nc(C)cc2N)cc1
  0.02 | 0.02
> Cc1cc([N+](=O)[O-])nn1CCCC(=O)Nc1cccc(Cl)c1Cl
  0.85 | 1.6
> COc1cccc(/C=C(\C#N)c2nc3ccccc3[nH]2)c1OCC(=O)O
  0.4 | -0.88
> COc1ccc(OCCC(=O)Nc2ccc(S(N)(=O)=O)cc2)cc1
  1.2 | 0.67
> CN=C1S/C(=C\c2ccc(O)c(Br)c2)C(=O)N1C
  1.6 | -0.49
> CN(C(=O)COC(=O)C1CCN(S(=O)(=O)c2ccc3c(c2)OCCO3)CC1)C1CCS(=O)(=O)C1 (centres undefined)
  0.83 | -0.23
> CC(C)CCN1C(=O)c2ccc(C(=O)Nc3cc(C(=O)O)cc(C(=O)O)c3)cc2C1=O
  0.49 | -0.94
> Cn1c(=O)[nH]c(NCCc2ccc(O)cc2)c([N+](=O)[O-])c1=O
  0.24 | 0.65
> CCSc1nc2c(c(=O)[nH]1)C(c1cccnc1)C(C(=O)OC)=C(C)N2 (centres undefined)
  1.1 | -0.02
> Cc1ccc(NC(=O)CSc2nnc(C3CC3)n2CC2CCCO2)c(C)c1 (centres undefined)
  1.6 | 0.11
> O=C(NN=C1CCCCCC1)c1ccncc1
  0.54 | 0.3
> O=C(Cn1cc(/C=N/O)c2ccccc21)N1CCOCC1
  2.4 | 0.19
> COc1cccc(NC(=O)COc2coc(CN3CCN(c4ccccc4)CC3)cc2=O)c1
  1 | -3.6
> Cn1cnnc1SC1c2cccc3cccc(c23)C1NS(=O)(=O)c1ccc(Cl)cc1 (centres undefined)
  1.1 | 0
> Cc1nnc(C)n1N
  0.25 | -1.4
> CCOC(=O)CN1C(=O)N[C@@H](CCc2ccccc2)C(C(C)=O)=C1C
  0.6 | 0.02
> O=C(NC(Cc1ccccc1)C(=O)O)/C(=C/c1ccc(F)cc1)NC(=O)c1ccccc1 (centres undefined)
  0.75 | -1.8
> COCCNC(=O)C1CC(=O)N(c2ccc(F)c(Cl)c2)C1 (centres undefined)
  0.91 | -1.1
> C/C(=N/NC(=O)c1ccco1)c1ccc(NC(=O)c2ccc(F)cc2)cc1
  0.99 | -2.1
> Cc1c(NS(=O)(=O)c2cc(C(=O)NCCN(C)C)ccc2Cl)c(=O)n(-c2ccccc2)n1C
  0.47 | 0.04
> CC1=NN(C(N)=S)C(=O)C1N=Nc1cccc(Cl)c1C (centres undefined)
  40* | -0.91*
> Cc1ccc(Cl)cc1NC(=O)COC(=O)C1CC1
  0.29 | 0.13
> CC1=CC(C)(C)n2c(O)c(N=NC(N)=S)c3cccc1c32
  1.1 | -0.14
> COCCNc1oc(Cc2cccc3ccccc23)nc1C#N
  1.8 | 0.08
> CN(C)Cc1c(C(=O)N/N=C/c2cccc3ccccc23)nnn1-c1nonc1N
  0.03 | -0.31
> CCOC(=O)C1CCN(C(=O)CN2C(=O)CSc3ccc(S(=O)(=O)N4CCOCC4)cc32)CC1
  0.01 | -1.8
> CCOC(=O)C1CCN(C(=O)CSCc2nc(-c3ccc(OCC)cc3)oc2C)CC1
  2 | 1
> Cc1nn(-c2ccccc2)c(Cl)c1/C=C1/C(=N)N2N=C(C(C)C)SC2=NC1=O
  0.98 | 0.69
> CN(CCCC(=O)Nc1ccc(Br)cc1F)S(=O)(=O)c1ccccc1
  1.3 | -1.4

Among those listed so far, two contain a nitro group on carbon:
Below each compound: KCNQ2 enhance | KCNQ2 enhance baseline
> Cc1cc([N+](=O)[O-])nn1CCCC(=O)Nc1cccc(Cl)c1Cl
  0.85 | 1.6
> Cn1c(=O)[nH]c(NCCc2ccc(O)cc2)c([N+](=O)[O-])c1=O
  0.24 | 0.65

Carrying on.
Below each compound: KCNQ2 enhance | KCNQ2 enhance baseline
> CC(C)(C)NC(=O)COC(=O)c1ccc(F)cc1Cl
  0.14 | 2.4
> CC(C)Cc1nnc(NC(=O)CCC(=O)N2CCCCC2)s1
  0.43 | -1.7
> Nc1c(-c2cccc(Cl)c2)cnn1-c1cccc([N+](=O)[O-])c1
  3.4 | 0.09
> CCC(C)(C)c1nnc(NC(=O)c2ccc([N+](=O)[O-])cc2)s1
  0.82 | 1.2
> COc1ccc(CCNC(=O)COC(=O)/C=C/c2cccs2)cc1OC
  0.01 | -0.41
> COCCNC(=O)C(OC(=O)c1cccs1)c1ccc(F)cc1 (centres undefined)
  0.81 | -0.43
> O=C1OCCC1Sc1nnc(-c2cccs2)n1Cc1ccccc1 (centres undefined)
  0.64 | -0.66
> COc1cccc(C(=O)Nc2ccccc2C(=O)N2CCCC2)c1
  0.22 | 0.4
> O=C(COC(=O)c1ccc(Oc2ccccc2)cc1)Nc1nnc(-c2ccccc2)o1
  0.59 | -0.05
> CN1CC(=O)N(CC(=O)NCc2ccc(F)cc2)c2ccccc2C1=O
  0.93 | -0.84
> COc1ccc(Cl)cc1C(=O)Nc1cccnc1
  1 | -0.09
> COc1ccc(/C=C/C(=O)NNC(=O)c2cc(C)oc2C)cc1
  0.7 | 0
> Cc1ccccc1NC(=O)NC1(C(=O)N2CCCC2)CCCCC1
  1 | -2.9
> CC(C)CCNC(=O)CCCOc1cc(=O)n(C)c2ccccc12
  0.13 | -1.5
> CCOc1ccccc1NS(=O)(=O)c1ccc2[nH]c(=O)ccc2c1
  1.3 | -0.92
> CCOC(=O)c1c(C)[nH]c(C(=O)COC(=O)CNC(=O)C2CCCCC2)c1C
  1.2 | 1.4
> COc1ccc(C(OC(=O)c2ccco2)C(=O)NC2CCCC2)cc1 (centres undefined)
  0.62 | -0.25
> CCOC(=O)N1CCN(C(=O)C2CCCN(S(=O)(=O)c3cc(C)ccc3OC)C2)CC1 (centres undefined)
  1.1 | -0.67
> CC(=O)[C@@]1(O)CC[C@H]2[C@@H]3C[C@H](C)C4=CC(=O)CC[C@]4(C)[C@H]3CC[C@@]21C
  0.33 | 0.7
> CCc1ccc(C(=O)COC(=O)c2cc([N+](=O)[O-])ccc2NCCO)cc1
  0.03 | 1.3
> CC1CC(C)CN(CCCNS(=O)(=O)c2cc(Br)cc3c2N(C(=O)C2CC2)CC3)C1 (centres undefined)
  0.55 | 0.85
> O=C(Nc1ccccc1N1CCCCC1)c1ccc(N2C(=O)c3ccccc3C2=O)cc1
  1.6 | -0.31
> Cc1cc(Cl)ccc1NC(=O)CN1CCCC1
  0.86 | -0.78
> Cc1ccc(C(=O)OCC(=O)NNC(=O)COc2ccc(Cl)cc2)c(O)c1
  0.69 | -0.59
> CC(=O)c1cccc(NC(=O)CN(c2cccc(F)c2)S(C)(=O)=O)c1
  1.1 | -0.06
> Cc1cccc(N/C=C(\[N+](=O)[O-])S(=O)(=O)c2ccccc2)c1
  0.82 | -0.68
> Cn1c(N)c(C(=O)CSc2ncn[nH]2)c(=O)n(C)c1=O
  0.06 | -1.6
> Cc1noc(NS(=O)(=O)c2ccc(N)cc2)c1C
  1.5 | -1.1
> Cc1ccc(NC2=C([N+](=O)[O-])CS(=O)(=O)C2)cc1
  2.2 | 0.55
> N#Cc1cnn(CC2CCCCC2)c1N
  1.3 | -1.1
> COc1ccccc1CC(=O)Nc1ncc(C)s1
  0.22 | -2.1
> CN(C)c1oc(-c2ccccc2F)nc1C#N
  1.5 | -0.58
> CN(C)C(=S)Nc1cccc(F)c1
  0.81 | -1
> COC(=O)c1cc(-c2cccc(OC)c2)on1
  0.04 | 0.93
> CCC(C)[C@H](Nc1nc(-c2ccccc2)nc2c1oc1ccccc12)C(=O)O (some centres undefined)
  0.82 | -0.29
> Cc1cccc(N2CCN(CC(=O)Nc3ccc(-n4cnnn4)cc3)CC2)c1C
  0.88 | 0.08
> COC(=O)c1ccc(CSc2ncnc3c2nnn3-c2ccc(F)cc2)o1
  1.6 | -0.61
> CCCc1ncc(C(O)c2cccc(OC)c2)n1C (centres undefined)
  0.32 | 0.4
> CCOC(=O)C1C(=O)CC(C)(O)C(C(=O)OCC)C1c1ccc(Br)o1 (centres undefined)
  1.1 | 0.9
> COc1ccc(S(=O)(=O)NCc2c(-c3ccccc3)noc2C)c(OC)c1
  1.9 | 0.36
> CC(=O)Nc1cccc(/C(C)=N/NC(N)=S)c1
  0.52 | -0.06
> COc1ccc(CN2CCN(S(=O)(=O)c3ccc(F)cc3)CC2)cc1OC
  1.5 | 0.98
> COc1ccc(-c2c(NC(=O)c3ccco3)n(-c3ccccc3)nc(C)c2=O)cc1
  0.31 | -2.1
> O=C(c1cccs1)N1CCN(S(=O)(=O)N2CCOCC2)CC1
  1.2 | -0.35
> O=C(c1ccc(OC2CCN(Cc3ccccc3OC(F)F)CC2)cc1)N1CCCC1
  0.03 | -0.18
> O=C(Cn1cnc2c(cnn2-c2ccc(F)cc2)c1=O)NCc1ccco1
  0.28 | -0.01
> C/C(CC(=O)NCC(C)C)=N\NC(=O)COc1cc(C)c(Br)cc1Br
  0.16 | 1.1
> O=C(Cc1ccccc1)NNC(=O)Nc1ccc(Cl)c(Cl)c1
  2.5 | -0.75
> CCCCCCn1c(CN2CCN(C(=O)c3ccco3)CC2)nc2c1c(=O)n(C)c(=O)n2C
  0.14 | -0.66
> Cc1cc(F)ccc1NC(=O)c1cccnc1
  0.55 | -0.24
> Cc1cc(C[n+]2ccsc2N)c2ncccc2c1
  0.26 | 0.37
> Nc1nc(NC2CCCCC2)nc(NCCO)c1[N+](=O)[O-]
  0.66 | -4.1
> COc1cc2c(cc1OC)C1=C(C#N)CCC(=NC(=O)c3ccco3)N1CC2
  1.6 | -1
> CC(C)Cc1nc2oc3c(=O)[nH]cnc3c2c2c1CCC2
  3 | 0.48
> Cc1cccc(NC(=O)CN2C(=O)c3ccccc3S2(=O)=O)n1
  0.03 | -0.36
> O=C(NCCCN1CCN(c2ccccc2F)CC1)C1CCN(S(=O)(=O)N2CCOCC2)CC1
  0.13 | -1.6
> COc1ccc(CCNC(=O)C2CC(=O)N(C3CCCCC3)C2)cc1OC (centres undefined)
  1.4 | 0.48
> CCCOC(=O)N[C@@H]1C(=O)N2C(C(=O)OCCC)=C(C)CS[C@H]12
  0.65 | 1.8
> CC(C)c1ccc(NC(=O)CSc2n[nH]c(=O)n2-c2cccnc2)cc1
  0.7 | 2.4
> COc1ccccc1/C=N/Nc1nccnc1Cl
  0.03 | -0.08

Other compounds follow:
Below each compound: KCNQ2 enhance | KCNQ2 enhance baseline
> CC1CCc2sc(C(=O)Nc3ccc(N4CCOCC4)cc3)cc2C1 (centres undefined)
  0.37 | -0.19
> CC1CC2(CC(C)(C(=O)CSc3nc4ccccc4s3)OC2=O)C(=O)O1 (centres undefined)
  0.72 | 0.47
> O=[N+]([O-])c1cccc(NC(=S)N2CCc3ccccc32)c1
  0.44 | 0.36
> Oc1nc(-c2ccc(Br)cc2)n2ccncc12
  0.61 | -1.3
> COc1ccc(N2CC(C(=O)N/N=C/c3c[nH]c4ccccc34)CC2=O)cc1 (centres undefined)
  0.11 | -0.22
> CC(=O)c1ccc(S(=O)(=O)N2CCN(C(C)=O)CC2)cc1
  1.6 | -0.3
> Nc1nonc1-n1nnc(C(=O)N/N=C/c2ccc(Br)cc2)c1-c1ccc2c(c1)OCO2
  0.79 | 2.5
> Cc1ccc(S(=O)(=O)N(CC(=O)N2CCOCC2)C2CCCCC2)cc1
  0.75 | -0.11
> O=C(Nc1ccc([N+](=O)[O-])cc1)Nc1ccc(Cl)cc1F
  0.82 | 3.1
> Clc1cccc(Oc2ncc(CN3CCOCC3)s2)c1
  0.16 | 0.21
> CCC1(c2ccc(F)cc2)NC(=O)N(CC(=O)Nc2cc(S(=O)(=O)N(C)C)ccc2Cl)C1=O (centres undefined)
  0.2 | 0.17
> Cc1cc(C)c(S(=O)(=O)N(C)CC(N)=O)c(C)c1
  -5.6 | /
> CCCCC(=O)Nc1nc2c(OC)cc([N+](=O)[O-])cc2s1
  0.34 | -1.6
> COc1ccccc1CNC(=O)C(=O)c1cn(CC(=O)N2CCCC2)c2ccccc12
  0.04 | -0.3
> O=C(Nc1ccc(Br)cc1)c1cc2ccccn2n1
  0.89 | 2.4
> COc1ccccc1Cn1c(=S)[nH]c2cc(C(=O)NC(C)C)ccc2c1=O
  0.07 | -0.28
> COC(=O)C1=C(C)N(CCc2cc(OC)c(OC)c(OC)c2)C(=O)N[C@H]1c1ccc(Br)cc1
  0.19 | 1.6
> Cc1ccc(NC(=O)C2CCCN(C(=O)NCc3ccccc3)C2)c(C)c1 (centres undefined)
  0.19 | 1
> CC(=O)Nc1cc(C(=O)NCc2ccco2)ccc1Sc1ccc(F)cc1
  0.73 | -1.2
> OC1CSc2nc3ccccc3n2C1 (centres undefined)
  0.23 | 0.33

Quoted at random: two records from the list, in no set order.
Below each compound: KCNQ2 enhance | KCNQ2 enhance baseline
> CN1CC(=O)N(CC(=O)NCc2ccc(F)cc2)c2ccccc2C1=O
  0.93 | -0.84
> Cc1ccc(NC2=C([N+](=O)[O-])CS(=O)(=O)C2)cc1
  2.2 | 0.55

Arranged by value in KCNQ2 enhance (low to high): 3 from the list above
Below each compound: KCNQ2 enhance | KCNQ2 enhance baseline
> COC(=O)C1=C(C)N(CCc2cc(OC)c(OC)c(OC)c2)C(=O)N[C@H]1c1ccc(Br)cc1
  0.19 | 1.6
> CCCCC(=O)Nc1nc2c(OC)cc([N+](=O)[O-])cc2s1
  0.34 | -1.6
> O=C(Nc1ccc(Br)cc1)c1cc2ccccn2n1
  0.89 | 2.4

Some of the compounds tested, so the mix of outcomes need not match the whole.
